High-throughput results from PubChem.
PKD1 kinase inh – PKD1 (human) kinase inhibition | Q15139 | PKD1 kinase fluorescence polarization assay | inhibition, %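 (about 10 µM by stock and volumes)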 | 200,000 tested, 0.056% active | AID 797;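 active means inhibition of 50% or more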;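 further: controls were vehicle for no effect and a reference inhibitor for full effect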
Target sequence (Q15139 whole entry, looked up): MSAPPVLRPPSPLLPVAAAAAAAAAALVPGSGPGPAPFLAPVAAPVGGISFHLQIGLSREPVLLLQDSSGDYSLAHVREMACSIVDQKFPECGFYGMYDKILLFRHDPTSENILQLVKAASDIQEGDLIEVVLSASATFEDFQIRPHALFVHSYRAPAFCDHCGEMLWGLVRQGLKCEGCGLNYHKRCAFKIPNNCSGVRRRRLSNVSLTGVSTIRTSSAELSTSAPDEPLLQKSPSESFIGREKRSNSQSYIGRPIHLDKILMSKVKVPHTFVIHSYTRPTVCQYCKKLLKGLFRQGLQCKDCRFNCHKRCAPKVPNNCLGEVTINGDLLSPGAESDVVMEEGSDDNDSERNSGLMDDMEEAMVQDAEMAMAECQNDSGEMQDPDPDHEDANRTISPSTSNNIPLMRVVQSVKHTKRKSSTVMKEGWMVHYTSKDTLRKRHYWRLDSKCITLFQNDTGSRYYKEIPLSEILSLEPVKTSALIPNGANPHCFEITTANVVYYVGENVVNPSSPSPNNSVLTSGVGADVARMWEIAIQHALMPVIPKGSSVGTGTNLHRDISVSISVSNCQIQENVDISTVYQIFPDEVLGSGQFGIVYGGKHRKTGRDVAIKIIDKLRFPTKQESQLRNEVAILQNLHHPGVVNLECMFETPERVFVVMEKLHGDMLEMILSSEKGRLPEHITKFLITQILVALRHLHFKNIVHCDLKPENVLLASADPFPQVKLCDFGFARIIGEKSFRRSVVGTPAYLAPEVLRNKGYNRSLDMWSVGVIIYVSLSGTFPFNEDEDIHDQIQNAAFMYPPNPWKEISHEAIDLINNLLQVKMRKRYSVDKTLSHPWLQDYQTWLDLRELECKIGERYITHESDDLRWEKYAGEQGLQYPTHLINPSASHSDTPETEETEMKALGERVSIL
GALR2 agonist – activates the human galanin receptor 2 | GALR2-expressing cells, agonist activation read-out | O43603 | AID 803 | 140,000 tested, 0.48% active | activation, %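 (tested at 5 µM)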;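 active means above mean plus 3 SD of all compounds, about 5% in these data, not always enough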;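 further: 0% = vehicle buffer wells and 100% = reference agonist at full effect; tested in CHO reporter cells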
HSV replic up – HSV replication enhancement | HSV replication augmentation in cells, fold increase | maximum fold increase | 220,000 tested, 0.005% active;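 active means peak rise of 1.5-fold or more in the series; tested in PC3 cells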;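 further: first round at 10 µM; read as green reporter fluorescence; hits show the peak of a series up to 25 µM; 1 = signal of infected wells without compound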
RGS16-Gao – modulates binding between human RGS16 and Galphao. O15492+P09471. bead-based flow cytometry RGS16-Galphao binding, fluorescence; actives lie on both sides. binding response (% of control), % at 10 µM. 220,000 tested, 0.38% active. AID 1441;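 active means below 25% or above 175%, edge rows of some plates excepted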;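 further: Galphao activated by GDP with aluminum fluoride before binding; 100% = wells without compound and 0% = beads without RGS; some results beyond the cut were filed as inactive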
Insulin prom inh – TRM-6 insulin promoter activity inhibition | TRM-6 cells (human fetal islet line), insulin promoter-eGFP reporter, imaging; reporter expression induced with tamoxifen | inhibition, % at 2 µM | 130,000 tested, 0.9% active;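 active means inhibition above the mean plus 3 SD, with well images judged a real hit on visual review, cut at about 60% in these data, passing the limit was not always enough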
Insulin prom inh cell count – second read-out of Insulin prom inh, no call of its own (marks repeat the call); normalized cell count, %; measured here: cell count, toxicity; reference of the scale not given here;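 cells exposed to compound for 48 h; stained nuclei by imaging scaled within each plate; lower means fewer cells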
HSV replic up primary fold – also measured in HSV replic up; calls as there; fold increase; compound at 10 µM; measured here: primary screen fold increase 10 uM; tested in PC3 cells;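 GFP signal in the first replicate; 1 = infected wells without compound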
An asterisk follows results filed as active.

Results for Cc1nonc1NC(=O)CSc1nnc(-c2ccoc2C)n1-c1cccc(Cl)c1 ?
PKD1 kinase inh: -10.6; GALR2 agonist: -1.4; HSV replic up: inactive; Insulin prom inh: -23.1; Insulin prom inh cell count: 131.8; HSV replic up primary fold: 0.93

How did CCc1cc2c(=O)c(-c3cnn(-c4ccccc4)c3)c(C)oc2c(CN2CCCCC2)c1O do in these assays?
PKD1 kinase inh: -5.2; GALR2 agonist: -4.2; HSV replic up: inactive; RGS16-Gao: 99.8; Insulin prom inh: 12.5; Insulin prom inh cell count: 99.6; HSV replic up primary fold: 0.67

How did CCN(CC)C(=O)c1c(Cl)nc(C)c([N+](=O)[O-])c1C do in these assays?
PKD1 kinase inh: -7.5; GALR2 agonist: -2.0; HSV replic up: inactive; RGS16-Gao: 112.9; Insulin prom inh: -20.0; Insulin prom inh cell count: 72.9; HSV replic up primary fold: 1.04

Results for CCOC(=O)N1CCN(C(=O)CSc2nnc(Cn3c(=O)sc4ccccc43)n2C)CC1 ?
PKD1 kinase inh: 3.1; GALR2 agonist: -0.6; HSV replic up: inactive; RGS16-Gao: 99.0; HSV replic up primary fold: 1.23

What do the screens show for `Cc1ccc(NC(=O)CN(c2ccc3c(c2)OCO3)S(=O)(=O)c2c(C)n[nH]c2C)cc1`?
PKD1 kinase inh: -2.2; GALR2 agonist: -2.1; HSV replic up: inactive; RGS16-Gao: 95.1; HSV replic up primary fold: 0.89

How did COc1ccc(-c2nnn(Cc3nc(N)nc(N4CCCCC4)n3)n2)cc1 do in these assays?
PKD1 kinase inh: -4.9; GALR2 agonist: -0.5; HSV replic up: inactive; RGS16-Gao: 95.8; HSV replic up primary fold: 0.95

What do the screens show for `C=CCSc1nc(N)c(C#N)c(-c2ccccc2)c1C#N`?
PKD1 kinase inh: -1.1; GALR2 agonist: -0.3; HSV replic up: inactive; RGS16-Gao: 144.9; Insulin prom inh: 0.0; Insulin prom inh cell count: 176.1; HSV replic up primary fold: 1.78

How did COc1ccc(-c2ccc([C@H]3[C@H]4C=CC[C@@H](C)[C@@H]4C(=O)N3Cc3ccccc3)c(F)c2)cc1OC do in these assays?
HSV replic up: inactive; RGS16-Gao: 98.9; HSV replic up primary fold: 0.865

How did CCc1nc(SCC(=O)N2c3ccccc3Sc3ccccc32)c2ccccc2n1 do in these assays?
PKD1 kinase inh: 15.0; GALR2 agonist: -0.4; HSV replic up: inactive; RGS16-Gao: 101.1; Insulin prom inh: 50.0; Insulin prom inh cell count: 93.4; HSV replic up primary fold: 0.81

Results for Cn1c(=O)c2[nH]c(Nc3ccccc3)nc2n(C)c1=O ?
PKD1 kinase inh: -6.3; GALR2 agonist: -1.6; HSV replic up: inactive; RGS16-Gao: 101.1; Insulin prom inh: 14.9; Insulin prom inh cell count: 97.2; HSV replic up primary fold: 0.967

How did O=C(CN1CCOCC1)Nc1cccc(S(=O)(=O)N2CCCCCC2)c1 do in these assays?
PKD1 kinase inh: -10.1; HSV replic up: inactive; RGS16-Gao: 106.8; Insulin prom inh: -45.0; Insulin prom inh cell count: 88.2; HSV replic up primary fold: 0.96

How did O=C(C1=C[C@H](c2ccc(Br)cc2)C[C@H](OCc2ccc(CO)cc2)O1)N1CCN(Cc2ccc3c(c2)OCO3)CC1 do in these assays?
PKD1 kinase inh: 6.2; HSV replic up: inactive; RGS16-Gao: 101.2; HSV replic up primary fold: 0.9

What do the screens show for `Cc1ccc(S(=O)(=O)NC(CCc2ccccc2)CC(=O)C(C)(C)C)cc1` (centres undefined)?
PKD1 kinase inh: -4.7; GALR2 agonist: -0.8; HSV replic up: inactive; RGS16-Gao: 103.9; Insulin prom inh: -61.9; Insulin prom inh cell count: 87.4; HSV replic up primary fold: 0.89

What do the screens show for `CCOc1ccccc1NC(=O)Cn1c(=O)n(CCC(=O)NC2CCCC2)c(=O)c2ccccc21`?
PKD1 kinase inh: 2.7; GALR2 agonist: 0.2; HSV replic up: inactive; RGS16-Gao: 105.9; Insulin prom inh: -10.7; Insulin prom inh cell count: 171.6; HSV replic up primary fold: 0.99

What do the screens show for `O=C(NN1C(=O)c2ccccc2NC1c1ccc([N+](=O)[O-])o1)c1ccccc1` (centres undefined)?
PKD1 kinase inh: -7.5; HSV replic up: inactive; RGS16-Gao: 100.3; HSV replic up primary fold: 0.96

Results for O=C(c1ccco1)N(CCCN1CCOCC1)c1nc(-c2ccc(Cl)cc2)cs1 ?
PKD1 kinase inh: -6.3; GALR2 agonist: -0.3; HSV replic up: inactive; RGS16-Gao: 97.6; HSV replic up primary fold: 0.82

Results for COC(=O)c1ccnc(SCC(=O)c2ccccc2)c1 ?
PKD1 kinase inh: -5.0; GALR2 agonist: -2.6; HSV replic up: inactive; RGS16-Gao: 106.9; Insulin prom inh: 0.0; Insulin prom inh cell count: 78.1; HSV replic up primary fold: 0.94

How did Cc1ccccc1C(=O)OC1OC(=O)C(Cl)=C1Nc1ccc(C(=O)O)cc1 (centres undefined) do in these assays?
PKD1 kinase inh: 0.5; HSV replic up: inactive; RGS16-Gao: 105.2; Insulin prom inh: 25.0; Insulin prom inh cell count: 132.1; HSV replic up primary fold: 0.94

How did O=C1/C(=C/c2cccs2)SC(=S)N1C1CCS(=O)(=O)C1 (centres undefined) do in these assays?
HSV replic up: inactive; RGS16-Gao: 104.1; HSV replic up primary fold: 0.91

What do the screens show for `O=C(Cc1ccccc1)Nc1nc2ccccc2s1`?
PKD1 kinase inh: -5.6; GALR2 agonist: -1.0; HSV replic up: inactive; RGS16-Gao: 103.4; HSV replic up primary fold: 1.05

What do the screens show for `CCn1c2ccccc2c2nnc(SCC(=O)Nc3c(C)n(C)n(-c4ccccc4)c3=O)nc21`?
PKD1 kinase inh: 6.3; GALR2 agonist: -0.7; HSV replic up: inactive; RGS16-Gao: 104.6; HSV replic up primary fold: 1.05

Results for NC(=O)CN1N=C(c2cc(Cl)sc2Cl)CSC1=O ?
PKD1 kinase inh: -6.5; GALR2 agonist: -1.6; HSV replic up: inactive; RGS16-Gao: 101.9; Insulin prom inh: -337.5; Insulin prom inh cell count: 50.9; HSV replic up primary fold: 0.87

How did O=C1CCCCC1C(O)c1ccc(Cl)cc1 (centres undefined) do in these assays?
HSV replic up: inactive; RGS16-Gao: 94.7; HSV replic up primary fold: 0.91

Results for COc1ccc(C(=O)N2CCCC(CCC(=O)NCc3ccc(F)c(F)c3)C2)cc1F (centres undefined) ?
PKD1 kinase inh: -6.1; HSV replic up: inactive; RGS16-Gao: 99.7; HSV replic up primary fold: 1.04

What do the screens show for `Nc1nc(-c2ccccc2)[nH]c(=O)c1N=O`?
HSV replic up: inactive; RGS16-Gao: 97.7; HSV replic up primary fold: 0.99

How did CCOC(=O)CC(=O)Nc1cc(Cl)ccc1O do in these assays?
PKD1 kinase inh: -8.7; GALR2 agonist: -1.6; HSV replic up: inactive; RGS16-Gao: 101.9; Insulin prom inh: -77.4; Insulin prom inh cell count: 150.0; HSV replic up primary fold: 0.84

How did Cc1nn(Cc2ccccc2Cl)c2sc(C(=O)NCCCn3ccnc3)cc12 do in these assays?
PKD1 kinase inh: 1.5; GALR2 agonist: -0.5; HSV replic up: inactive; RGS16-Gao: 102.9; HSV replic up primary fold: 0.95

What do the screens show for `CCOC(=O)C1CCCN(Cc2sccc2C)C1` (centres undefined)?
PKD1 kinase inh: -1.1; GALR2 agonist: -3.7; HSV replic up: inactive; RGS16-Gao: 101.9; Insulin prom inh: 9.7; Insulin prom inh cell count: 111.0; HSV replic up primary fold: 0.94

How did O=C(Nc1nc2ccc(SC(F)F)cc2s1)c1ccc2c(c1)S(=O)(=O)c1ccccc1C2=O do in these assays?
PKD1 kinase inh: -6.4; GALR2 agonist: -0.9; HSV replic up: inactive; RGS16-Gao: 111.6; Insulin prom inh: 29.6; Insulin prom inh cell count: 94.5; HSV replic up primary fold: 1.02

What do the screens show for `O=C(Nc1ccc(F)cc1)NC1(C(=O)NCc2ccco2)CCCCC1`?
PKD1 kinase inh: 1.7; GALR2 agonist: -1.8; HSV replic up: inactive; RGS16-Gao: 106.2; HSV replic up primary fold: 0.9

By substructure: the compounds so far with a thiophene ring, fused or not (4)
How did O=C1/C(=C/c2cccs2)SC(=S)N1C1CCS(=O)(=O)C1 (centres undefined) do in these assays?
HSV replic up: inactive; RGS16-Gao: 104.1; HSV replic up primary fold: 0.91

Results for NC(=O)CN1N=C(c2cc(Cl)sc2Cl)CSC1=O ?
PKD1 kinase inh: -6.5; GALR2 agonist: -1.6; HSV replic up: inactive; RGS16-Gao: 101.9; Insulin prom inh: -337.5; Insulin prom inh cell count: 50.9; HSV replic up primary fold: 0.87

How did Cc1nn(Cc2ccccc2Cl)c2sc(C(=O)NCCCn3ccnc3)cc12 do in these assays?
PKD1 kinase inh: 1.5; GALR2 agonist: -0.5; HSV replic up: inactive; RGS16-Gao: 102.9; HSV replic up primary fold: 0.95

What do the screens show for `CCOC(=O)C1CCCN(Cc2sccc2C)C1` (centres undefined)?
PKD1 kinase inh: -1.1; GALR2 agonist: -3.7; HSV replic up: inactive; RGS16-Gao: 101.9; Insulin prom inh: 9.7; Insulin prom inh cell count: 111.0; HSV replic up primary fold: 0.94

Next structures follow.
What do the screens show for `Cc1ccc(C2(C(F)(F)F)NC(=O)N3C(=C2C#N)Nc2ccccc23)cc1` (centres undefined)?
PKD1 kinase inh: -7.7; GALR2 agonist: 5.9; HSV replic up: inactive; RGS16-Gao: 101.2; Insulin prom inh: 0.0; Insulin prom inh cell count: 73.0; HSV replic up primary fold: 0.88

Results for O=[N+]([O-])c1ccc(-c2nnc(-c3ccccc3)c(NCCCO)n2)cc1 ?
PKD1 kinase inh: -6.8; GALR2 agonist: 0.3; HSV replic up: inactive; RGS16-Gao: 113.5; Insulin prom inh: -29.4; Insulin prom inh cell count: 89.8; HSV replic up primary fold: 0.86

Results for CCn1c(SCC(=O)O)nnc1-c1cc2c(C)nn(-c3ccccc3)c2s1 ?
PKD1 kinase inh: 4.1; GALR2 agonist: -2.1; HSV replic up: inactive; RGS16-Gao: 97.3; HSV replic up primary fold: 1.19

How did CCOC(=O)c1c(N)sc(C(=O)N2CCCC(C(N)=O)C2)c1C (centres undefined) do in these assays?
PKD1 kinase inh: -6.8; GALR2 agonist: -1.9; HSV replic up: inactive; Insulin prom inh: 23.1; Insulin prom inh cell count: 136.0; HSV replic up primary fold: 1.14

What do the screens show for `Cc1c(N=CN2CCOCC2)c(=O)n(C)c(=O)n1C`?
PKD1 kinase inh: -0.2; GALR2 agonist: -0.1; HSV replic up: inactive; RGS16-Gao: 102.3; Insulin prom inh: -40.5; Insulin prom inh cell count: 119.7; HSV replic up primary fold: 1.09

What do the screens show for `Fc1ccc(NC(=S)N2CCN(C/C=C/c3ccccc3)CC2)c(F)c1`?
PKD1 kinase inh: -10.2; HSV replic up: inactive; RGS16-Gao: 100.7; HSV replic up primary fold: 1.01

What do the screens show for `COCc1[nH]nc2c1C1(CCC3(CC1)OCCO3)C(C#N)=C(N)O2`?
PKD1 kinase inh: -1.6; GALR2 agonist: -2.4; HSV replic up: inactive; RGS16-Gao: 94.2; Insulin prom inh: 24.2; Insulin prom inh cell count: 115.9; HSV replic up primary fold: 0.98

How did O=C(C1=C(O)C(=O)N(CCN2CCOCC2)C1c1cccnc1)c1cc2ccccc2o1 (centres undefined) do in these assays?
PKD1 kinase inh: -1.9; GALR2 agonist: -1.8; HSV replic up: inactive; RGS16-Gao: 103.1; Insulin prom inh: -7.1; Insulin prom inh cell count: 66.9; HSV replic up primary fold: 1.21

What do the screens show for `O=C(CCN1C(=O)/C(=C/c2cccs2)SC1=S)NNC(=O)c1cccc(O)c1`?
PKD1 kinase inh: 2.1; HSV replic up: inactive; RGS16-Gao: 104.0; HSV replic up primary fold: 0.71

Results for Cc1cc(-c2nnc(SCC(=O)Nc3ccccc3Cl)n2C)no1 ?
HSV replic up: inactive; RGS16-Gao: 99.4; HSV replic up primary fold: 0.94

Results for CCC(C)NC(=O)CSc1n[nH]c(-c2cc(Cl)ccc2OC)n1 (centres undefined) ?
PKD1 kinase inh: -0.1; HSV replic up: inactive; RGS16-Gao: 119.5; Insulin prom inh: 45.5; Insulin prom inh cell count: 127.0; HSV replic up primary fold: 0.87

How did O=C(COc1ccc(Cl)cc1)Nc1nnc(C2=COCCO2)o1 do in these assays?
PKD1 kinase inh: -1.3; RGS16-Gao: 100.7; Insulin prom inh: -69.2; Insulin prom inh cell count: 112.1

How did COc1cc(OC)cc(-n2nnnc2SCC(=O)N2CCCC2)c1 do in these assays?
PKD1 kinase inh: 2.4; GALR2 agonist: -0.9; HSV replic up: inactive; RGS16-Gao: 107.8; HSV replic up primary fold: 1.07

What do the screens show for `Cc1cccc(N2CCN(C(=O)c3cn(C)c(=O)c4c3c3ccccc3n4C)CC2)c1C`?
PKD1 kinase inh: 0.4; GALR2 agonist: -1.7; RGS16-Gao: 101.3; Insulin prom inh: 10.0; Insulin prom inh cell count: 116.4
